Source: PubChem
Sa growth 42C – inhibitors of Staphylococcus aureus growth at 42 °C; S. aureus RN4220 growth, OD600, 20 h; hits give low values; relative growth, % (test concentration not listed); actives 0.53% (n = 170,000);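 active means growth at 42 °C up to 50% and 20 or more points under that at 30 °C, or under 10% at both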;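 further: 300 nL library stock went into each well; scaled to the means of positive and negative controls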
HCMV UL50-53 inh – disrupts HCMV UL50-UL53 complex binding | HTRF UL50-UL53 interaction, normalized percent inhibition | inhibition, % (no concentration beside the values) | actives 0.15% (n = 190,000) | AID 1918969;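 active means both replicates at 50% or more, plus weaker picks with an unusually low signal ratio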;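 further: stock transfer was 100 nL into about 20 µL; 0% = negative control wells and 100% = wells with untagged competitor protein; inactives centre near -12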
GIV Gai3 FP – blocks GIV peptide binding to rat Galpha-i3 | actives 0.42% (n = 210,000) | P08753 | AID 1224905 | Galpha-i3/FITC-GIV peptide fluorescence polarization, 90 min; hits give low values; scaled: aluminum fluoride 0%, vehicle 100% | percent of control (FP), % (test concentration not listed);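 active means replicate mean at 85% of control or lower, very high polarization wells dropped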;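 further: wells of about 15 µL received 100 nL stock; the first replicate is given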
Target sequence (P08753 whole entry, looked up): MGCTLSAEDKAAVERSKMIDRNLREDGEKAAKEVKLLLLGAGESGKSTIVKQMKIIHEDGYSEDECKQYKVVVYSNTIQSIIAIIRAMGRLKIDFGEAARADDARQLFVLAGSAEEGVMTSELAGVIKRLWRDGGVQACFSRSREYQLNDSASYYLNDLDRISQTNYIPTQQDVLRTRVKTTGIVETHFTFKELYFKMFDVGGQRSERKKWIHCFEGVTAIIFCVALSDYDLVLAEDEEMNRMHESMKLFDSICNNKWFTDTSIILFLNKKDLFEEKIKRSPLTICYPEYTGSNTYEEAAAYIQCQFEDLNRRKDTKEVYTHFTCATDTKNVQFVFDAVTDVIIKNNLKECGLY
Sa growth 42C second temp – second read-out of Sa growth 42C, no call of its own (marks repeat the call); relative growth, %; measured here: growth at 30 °C;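 optical density after 20 h as mean of two plates; 100% = untreated growth and lower means inhibition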
* hit, by the source's call; / = no result given.

Key to letters – A = Sa growth 42C; B = Sa growth 42C second temp; C = HCMV UL50-53 inh; D = GIV Gai3 FP
Cn1c(C(=O)N2CCC(C(=O)N3CCN(Cc4ccc5c(c4)OCO5)CC3)CC2)cc2sccc21
  A: 104 | B: 80 | C: -12 | D: 103
c1ccc(-c2cc(N3CCCCC3)n3cnnc3n2)cc1
  A: 125 | B: 100 | C: 5 | D: 106
COC(=O)C1=C(C)NC2=C(C(=O)CC(c3ccc(N(C)C)cc3)C2)C1c1ccc(O)c(OC)c1 (centres undefined)
  A: 92 | B: 73 | C: / | D: 105
CC1Cc2ccccc2N1C(=O)Nc1ccc2c(c1)OCO2 (centres undefined)
  A: 103 | B: 100 | C: 2 | D: 103
CN(C)C(=O)COC(=O)c1ccc(S(=O)(=O)N2CCCc3ccccc32)cc1
  A: 84 | B: 88 | C: -28 | D: /
CCCCNS(=O)(=O)c1ccc2c(c1)C(=C(C#N)C#N)c1cc(S(=O)(=O)NCCCC)ccc1-2
  A: 82 | B: 83 | C: -21 | D: 101
O=C(CCC(=O)c1ccccc1)Nc1ccc(-c2ccccc2)cc1
  A: 89 | B: 82 | C: / | D: 106
C#CCN1C(=O)S/C(=C/c2cc(CC=C)c(O)c(OC)c2)C1=O
  A: 120 | B: 105 | C: -14 | D: 201
Cc1nc2nc(NCc3ccccc3)[nH]n2c(=O)c1CCC(=O)Nc1nccs1
  A: / | B: / | C: -26 | D: 95
CCS(=O)(=O)Nc1cccc(Oc2ccccc2)c1
  A: 100 | B: 100 | C: -14 | D: /
O=C(O)Cc1ccccc1Sc1ccccc1
  A: 126 | B: 101 | C: -2 | D: 104
CCN(CC)Cc1c(O)ccc2c1O/C(=C\c1ccc(C(=O)OC)cc1)C2=O
  A: 94 | B: 81 | C: -33 | D: 137
COc1cccc(C(=O)n2ccc(-c3cccs3)n2)c1
  A: 77 | B: 83 | C: -22 | D: 103
CCN(CC)S(=O)(=O)c1ccc2c(c1)ncn2CCC(=O)NC1CCN(Cc2ccccc2)CC1
  A: / | B: / | C: -25 | D: 114
CCCCc1ccc(-c2nc(-c3ccncc3)no2)cc1
  A: 107 | B: 69 | C: 4 | D: 106
Cc1ccc(NC(=O)c2sc3nc4c(cc3c2N)CCCC4)cc1
  A: 87 | B: 89 | C: / | D: 103
CC(Sc1nc2c(cnn2-c2ccc(Cl)cc2)c(=O)[nH]1)c1ccccc1 (centres undefined)
  A: 94 | B: 87 | C: -39 | D: 98
CC(C)(C)N/N=C/c1ccc(O)c(O)c1O
  A: 62 | B: 73 | C: -33 | D: /
O=C(Cc1cccc2ccccc12)Nc1cccnc1
  A: 93 | B: 74 | C: / | D: 97
Cn1ccnc1C(=O)c1ccc(Cl)c(S(=O)(=O)N2CCOCC2)c1
  A: 102 | B: 93 | C: -32 | D: /
CN(Cc1ccccc1)Cc1csc2c1CCCC2
  A: 92 | B: 90 | C: / | D: 103
COc1ccccc1-c1cc(C(=O)Nc2c(C)nn(Cc3ccc(Cl)cc3)c2C)no1
  A: 97 | B: 87 | C: -14 | D: 104
O=C(CN1CCN(Cc2ccccc2)C(=O)C1=O)NCCCc1ccccc1
  A: / | B: / | C: -23 | D: 104
COc1ccc(Cl)cc1S(=O)(=O)Nc1cccc(-c2ccc(N3CCCCC3)nn2)c1
  A: / | B: / | C: -12 | D: 94
Cc1occc1C(=O)N/N=C/c1ccc(F)c(Br)c1
  A: 109 | B: 105 | C: -10 | D: 95
O=S(=O)(c1cc(F)ccc1F)N1CCN=C1N1CCN(c2ccc(F)cc2)CC1
  A: / | B: / | C: -22 | D: 104
CS(=O)(=O)Nc1ccccc1C(=O)O
  A: 128 | B: 100 | C: -11 | D: 101
O=C(NCc1ccco1)NCc1c(-c2cccs2)n(Cc2ccccc2)c2ccccc12
  A: 102 | B: 75 | C: -20 | D: 100
Cc1cc(Nc2ccc(C)c(Cl)c2)n2nc(-c3ccccc3)nc2n1
  A: 103 | B: 92 | C: -18 | D: 106
CCOc1ccc(NC(=O)Nc2cc3c(cc2Oc2ccccc2)n(C)c(=O)n3C)cc1
  A: / | B: / | C: -30 | D: 107
CCC(=O)Nc1nc(-c2ccccc2)cs1
  A: 93 | B: 86 | C: -29 | D: /
N#C/C(=C\c1ccc([N+](=O)[O-])cc1)c1nc(-c2cc3cc(Br)ccc3oc2=O)cs1
  A: / | B: / | C: -8 | D: 100
CCOC(=O)c1cc(-c2ccc(OC)cc2)n(CCC(=O)NCCc2ccc(OCC)c(OCC)c2)c1C
  A: 119 | B: 82 | C: / | D: 99
CCN(CC)CCNc1cc(C(C)(C)C)nc2c(-c3ccc(F)cc3)c(C)nn12
  A: / | B: / | C: -34 | D: 98
CCC(NC(=O)Nc1ccccc1C(=O)O)(C(F)(F)F)C(F)(F)F
  A: 145 | B: 97 | C: 1 | D: 108
O=C(NCCOc1cccc2cccnc12)C1CC1
  A: 101 | B: 105 | C: -10 | D: 98
NNC(=O)Cc1nc(-c2ccccc2)cs1
  A: 74 | B: 79 | C: -31 | D: /
Cc1ccc(CN2C(=O)CSc3ccc(NC(=O)NCc4ccccc4)cc32)cc1
  A: 89 | B: 84 | C: / | D: 98
CC1Cc2ccccc2N1S(=O)(=O)c1ccc2[nH]c(=O)[nH]c2c1 (centres undefined)
  A: 96 | B: 95 | C: -10 | D: /
CN(Cc1ccccc1)S(=O)(=O)c1ccc2c(c1)CCN2C(=O)CCC(=O)N1CCCC1
  A: / | B: / | C: -25 | D: 101
NC(=O)CSc1nccn1Cc1ccccc1
  A: 86 | B: 86 | C: -30 | D: 102
COc1cccc(C2CC(=O)Nc3c2c(C)nn3-c2ccc3nncn3n2)c1OCc1cccc(C)c1 (centres undefined)
  A: / | B: / | C: -37 | D: 88
CCOC(=O)c1ccc(NC(=O)N2CCC(CN3CCCCCC3)CC2)cc1
  A: 100 | B: 107 | C: 8 | D: 102
COc1cc(C2Nc3cc(C)c(C)cc3NC3=C2C(=O)CC(C)(C)C3)cc(Br)c1OC (centres undefined)
  A: / | B: / | C: -42 | D: 106
CCC(=O)N1CCc2cc(S(=O)(=O)NC(C(=O)NCc3ccc(OC)cc3)C(C)C)ccc21 (centres undefined)
  A: 93 | B: 95 | C: -4 | D: 102
Cc1cccc(C)c1OCCNC(=O)c1ccc2ccccc2n1
  A: 60 | B: 45 | C: -23 | D: 101
Cc1ccc(S(=O)(=O)N(C)c2ccc(C(=O)N3CCCCC3)cc2)cc1
  A: 119 | B: 104 | C: -3 | D: /
CC(=O)NCCNCc1ccc(OCc2csc(C)n2)cc1
  A: 79 | B: 88 | C: -27 | D: /
O=C(CCc1ccccc1)NCc1nc2cccnc2n1Cc1ccc(F)cc1
  A: 109 | B: 98 | C: / | D: 106
Nc1c(C(=O)c2ccccc2)no[n+]1[O-]
  A: 67 | B: 46 | C: -20 | D: /
CC(C)(C)c1ccc(S(=O)(=O)NCc2ccc(C(=O)N3CCN(C(=O)c4ccco4)CC3)cc2)cc1
  A: 100 | B: 94 | C: -10 | D: 106
CC(C)Cc1cc(-c2nn3c(-c4ccncc4)nnc3s2)n[nH]1
  A: / | B: / | C: -22 | D: 107
CCc1ccc(-c2cc(C)no2)cc1S(=O)(=O)N1CC(C)Sc2ccccc21 (centres undefined)
  A: 96 | B: 91 | C: -26 | D: 101
COc1ccc(C(=O)OCc2nnc(-c3ccccc3)o2)cc1S(=O)(=O)N1CCCCC1C (centres undefined)
  A: 94 | B: 90 | C: -4 | D: /
CCc1ccc(NC(=O)Cc2coc3ccc(C(C)C)cc23)cc1
  A: 118 | B: 94 | C: / | D: 105
COCC(=O)Nc1cc(-c2cn3cccnc3n2)ccc1OC
  A: 97 | B: 103 | C: -53 | D: 103
CN=Cc1ccccc1Br
  A: 87 | B: 89 | C: -28 | D: /
CC1(C)CC(=O)C(C=NCCN2CCNCC2)=C(O)C1
  A: 114 | B: 88 | C: -4 | D: /
Cc1ccc(CNC(=O)Cn2c(=O)cc(C)c3c(C)nn(-c4cccc(F)c4)c32)cc1
  A: 88 | B: 90 | C: / | D: 103
CC1CCCN(C(=O)CSc2nc3ccccc3o2)C1 (centres undefined)
  A: 107 | B: 92 | C: -10 | D: /

In a second layout: entries from further up
Below each SMILES: Sa growth 42C	Sa growth 42C second temp	HCMV UL50-53 inh	GIV Gai3 FP
O=C(CCc1ccccc1)NCc1nc2cccnc2n1Cc1ccc(F)cc1
  109	98	/	106
CC(C)(C)c1ccc(S(=O)(=O)NCc2ccc(C(=O)N3CCN(C(=O)c4ccco4)CC3)cc2)cc1
  100	94	-10	106
CC1CCCN(C(=O)CSc2nc3ccccc3o2)C1 (centres undefined)
  107	92	-10	/

(more compounds)
Key to letters – A = Sa growth 42C; B = Sa growth 42C second temp; C = HCMV UL50-53 inh; D = GIV Gai3 FP
COc1ccc(Cl)cc1NC(=O)COc1cccc2ccc(N3CCC(C(N)=O)CC3)nc12
  A: / | B: / | C: -30 | D: 99
CCC1CN(C(=O)N2CCC(C(=O)N3CCCCC3)CC2)c2ccccc2O1 (centres undefined)
  A: 104 | B: 89 | C: -7 | D: 105
Nc1ccc(-c2nnc(-c3ccc(N)cc3)o2)cc1
  A: 93 | B: 58 | C: -15 | D: 104
CC1C/C(=N\O)c2ccccc21 (centres undefined)
  A: 98 | B: 64 | C: -17 | D: 106
CS(=O)(=O)Nc1ccc(C(=O)CSc2nnc3n2CCCCC3)cc1
  A: 78 | B: 94 | C: -6 | D: /
Cc1ccc2nc3c(c(C(=O)O)c2c1)CC(C(C)(C)C)CC3 (centres undefined)
  A: 168 | B: 88 | C: / | D: 102
CCNCc1nc2ccccc2c(=O)[nH]1
  A: 84 | B: 87 | C: -12 | D: /
CCCN(CCC)C1=C(C(=O)c2ccccc2)N(CC(N)=O)S(=O)(=O)c2ccccc21
  A: 80 | B: 86 | C: / | D: 109
Cc1ccc(-n2c(SCC(=O)NC(C)(C#N)C(C)C)nnc2-c2ccccc2)cc1C (centres undefined)
  A: 103 | B: 108 | C: -2 | D: /
CCn1cc(C(=O)NCCC2=CCCCC2)c(=O)c2cc(S(=O)(=O)N(C)C)ccc21
  A: 93 | B: 86 | C: -17 | D: 104
CCN(CC)c1ccc(C=C2C(=O)N(C)C(=O)N(C)C2=O)o1
  A: 105 | B: 94 | C: -84 | D: 334
O=C(CN1C(=O)C2CC=CCC2C1=O)NCc1cccc(C(F)(F)F)c1 (centres undefined)
  A: 96 | B: 91 | C: -24 | D: /
Cc1cccc(C(=O)Oc2ccc3oc(=O)sc3c2)c1
  A: 80 | B: 65 | C: 1 | D: 109
Cc1cc2c(cc1S(=O)(=O)N1CCCC(C(=O)NC3CCCC3)C1)OCC(=O)N2 (centres undefined)
  A: / | B: / | C: -7 | D: 98
O=C(c1ccc2ncsc2c1)N1CCN(c2ccccc2)CC1
  A: 100 | B: 96 | C: -14 | D: /

Compounds listed so far containing a thiophene ring, fused or not (five):
Key to letters – A = Sa growth 42C; B = Sa growth 42C second temp; C = HCMV UL50-53 inh; D = GIV Gai3 FP
Cn1c(C(=O)N2CCC(C(=O)N3CCN(Cc4ccc5c(c4)OCO5)CC3)CC2)cc2sccc21
  A: 104 | B: 80 | C: -12 | D: 103
COc1cccc(C(=O)n2ccc(-c3cccs3)n2)c1
  A: 77 | B: 83 | C: -22 | D: 103
Cc1ccc(NC(=O)c2sc3nc4c(cc3c2N)CCCC4)cc1
  A: 87 | B: 89 | C: / | D: 103
CN(Cc1ccccc1)Cc1csc2c1CCCC2
  A: 92 | B: 90 | C: / | D: 103
O=C(NCc1ccco1)NCc1c(-c2cccs2)n(Cc2ccccc2)c2ccccc12
  A: 102 | B: 75 | C: -20 | D: 100

(list continues)
Key to letters – A = Sa growth 42C; B = Sa growth 42C second temp; C = HCMV UL50-53 inh; D = GIV Gai3 FP
Oc1ccc(-c2ccccc2)cc1O
  A: 96 | B: 98 | C: 2 | D: 106
Cc1ccc(C(=O)N2CCCCC2)cc1NC(=O)C1=CSCCO1
  A: 85 | B: 88 | C: -41 | D: 104
Cc1ccc(Cl)cc1NC(=O)C(Cc1ccccc1)NS(=O)(=O)c1cccc2cccnc12 (centres undefined)
  A: / | B: / | C: -28 | D: 101
Cc1oc(-c2ccccc2)nc1CSc1nc(-c2cccnc2)cc(=O)[nH]1
  A: / | B: / | C: 10 | D: 104
CCN1CCN(C(=O)C2CCCN(S(=O)(=O)c3cn(C(C)C)cn3)C2)CC1 (centres undefined)
  A: / | B: / | C: -14 | D: 98
COc1ccc(-c2nc(CSCC(=O)NC3CC3)c(C)o2)cc1OC
  A: 113 | B: 91 | C: -8 | D: 108
Cc1cnc(C(=O)OCC(=O)c2csc(N3CCCCC3)n2)cn1
  A: 106 | B: 99 | C: -22 | D: /
CCc1ccc(NC(=O)c2c(C(=O)Nc3ccccc3)sc3nc(C)cc(=O)n23)cc1
  A: 99 | B: 78 | C: 5 | D: 101
CCOC(=O)c1c(C)[nH]c(C)c1S(=O)(=O)N1CCC(C(=O)Nc2ccc(C)c(N(C)C)c2)CC1
  A: 86 | B: 92 | C: / | D: 106
CCCNC(=O)c1cccc(COc2ccccc2OC)c1
  A: 102 | B: 99 | C: 2 | D: 108
Cc1nnc(SC(C(=O)N2CCCC2)c2ccccc2)n1N (centres undefined)
  A: 106 | B: 97 | C: 4 | D: /
